Screening data: PubChem BioAssay, several laboratories
ugtP null kill – kills S. aureus RN4220 lacking UgtP | S. aureus RN4220 ugtP deletion, OD600 growth, 16 h; some inactives read as strong as hits | growth inhibition, % (concentration not given with the values) | 330,000 tested, 0.54% active | AID 1259309;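 active = z-score under -3 and OD600 up to 0.15 on both plates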;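 note: plate controls were untreated wells for no effect and antibiotic for full effect; wells of about 80 µL received 100 nL stock; the first replicate is given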
Sa RN4220 lethal – kills Staphylococcus aureus RN4220; S. aureus RN4220 growth, OD600, 16 h; inhibition, % (concentration not given with the values); 330,000 tested, 0.33% active; AID 1259311;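 active = z-score of -3 or lower and OD600 up to 0.18 on both plates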;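 note: plate controls were untreated cells for no effect and reference antibiotic for full effect; stock transfer was 100 nL into about 80 µL; one replicate is shown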
Bead autofluor – compound fluorescence in toxin protease inhibitor counterscreen | compound autofluorescence counterscreen, microsphere flow cytometry; stronger effect = higher value | fluorescence intensity (concentration not given with the values) | 360,000 tested, 3.1% active | AID 624483;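 active = at least 3 SD above the mean of all compounds, about 16000 in these data; inconclusive = too few beads counted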;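 note: 100 nL of 1 mM stock went into each well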
PrP UTR inh – suppresses PrP 5' UTR mRNA reporter expression | cell-based PrP 5' UTR mRNA reporter, plate reader | inhibition, % (concentration not given with the values) | 340,000 tested, 0.35% active | AID 488862;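 active = every replicate at 50% or more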;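 note: 0 = median of the neutral control wells; tested in H4 reporter cells; numbers are from one replicate; inactives centre near -14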
BJeLR lethal – BJeLR cell viability loss; BJeLR (HRASV12) viability, CellTiter-Glo ATP luminescence, 48 h; reference of the scale not given here; inhibition, % (concentration not given with the values); AID 1554; 300,000 tested, 0.17% active;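 active = replicate mean above 50%; inconclusive = above 50% but judged a plate artefact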;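 note: 50 nL library stock added to about 25 µL; numbers are from one replicate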
Mtb hypoxia rep – inhibitors of hypoxia-regulated fluorescent reporter in Mycobacterium tuberculosis; M. tuberculosis hypoxia-regulated fluorescent reporter, fluorescence; fluorescence inhibition, % (concentration not given with the values); 300,000 tested, 0.1% active; AID 1159583;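 active = 35 to 45% if threefold the growth effect, above 45% if 1.5-fold the growth effect; inactive = the rest, general growth blockers included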;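 note: wells of about 50 µL received 100 nL stock; 0% = vehicle wells and 100% = reference inhibitor wells; whole bacteria with a GFP reporter of the hypoxia response; strong numbers were not always called active; many hits fall short of the cut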
Mtb hypoxia rep growth – recorded beside Mtb hypoxia rep, whose call it bears; growth inhibition, %; measured here: M. tuberculosis growth (absorbance);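 0% = vehicle and 100% = reference antibiotic; read after six days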
* hit, by the source's call; ? = inconclusive; . = no result given; & = joins results of further samples.

structure,Bead autofluor,Sa RN4220 lethal,ugtP null kill,PrP UTR inh,BJeLR lethal,Mtb hypoxia rep,Mtb hypoxia rep growth
CCNC(=O)[C@H]1O[C@@H](n2cnc3c(N)nc(NCCc4ccc(CCC(=O)O)cc4)nc32)[C@H](O)[C@@H]1O,4547,.,.,-17,-7,.,.
Cc1ccc(C)c(Cn2nc3c4ccccc4n(Cc4ccccc4)cc-3c2=O)c1,3677,1.7,11,-29,8,0,6
CN(C)/C=C/C(=O)c1ccc(C(F)(F)F)cc1F,3305,9.3,6,-21,-7,-3,9
CC(C)NCC(O)(c1ccc(Cl)cc1)c1ccc(Cl)cc1,4517,-2.0,-13,-9,-4,-2,13
C=CCOc1ccc(C2/C(=C(\O)c3ccc(F)cc3)C(=O)C(=O)N2CCCN(C)C)cc1 (configuration not stated),2313,2.3,12,-21,-15,13,7
O=C(CCc1ccccc1)Nc1c(F)c(F)c(F)c(F)c1F,3250,-5.3,-3,-21,-2,3,10
O=C(CSCC(=O)Nc1nccs1)Nc1ccccc1,3401,-20,-4,-9,-8,19,-22
CC(=NNC(=S)NCCc1ccccc1)c1ccc(C#N)cc1,.,2.4,-7,.,.,-3,4
CNC(=O)CN(c1cccc(Br)c1)S(C)(=O)=O,4166,0.1,-1,-16,3,.,.
COCCNC(=O)NC(=O)CN1C(=O)NC(Cc2c[nH]c3ccccc23)C1=O (configuration not stated),4108,2.1,-4,-14,3,6,0
O=C(O)c1c2c(nc3ccc(S(=O)(=O)N4CCC(C(=O)N5CCCCC5)CC4)cc13)CCCC2,6057,4.5,7,-22,.,9,2
CN(c1cccc(Cl)c1)S(=O)(=O)c1cccc(C(=O)Nc2nc3ccccc3[nH]2)c1,2481,-1.9,-8,-19,-8,12,1

The list goes on; the last 6 above are carried over.
structure,Bead autofluor,Sa RN4220 lethal,ugtP null kill,PrP UTR inh,BJeLR lethal,Mtb hypoxia rep,Mtb hypoxia rep growth
O=C(CSCC(=O)Nc1nccs1)Nc1ccccc1,3401,-20,-4,-9,-8,19,-22
CC(=NNC(=S)NCCc1ccccc1)c1ccc(C#N)cc1,.,2.4,-7,.,.,-3,4
CNC(=O)CN(c1cccc(Br)c1)S(C)(=O)=O,4166,0.1,-1,-16,3,.,.
COCCNC(=O)NC(=O)CN1C(=O)NC(Cc2c[nH]c3ccccc23)C1=O (configuration not stated),4108,2.1,-4,-14,3,6,0
O=C(O)c1c2c(nc3ccc(S(=O)(=O)N4CCC(C(=O)N5CCCCC5)CC4)cc13)CCCC2,6057,4.5,7,-22,.,9,2
CN(c1cccc(Cl)c1)S(=O)(=O)c1cccc(C(=O)Nc2nc3ccccc3[nH]2)c1,2481,-1.9,-8,-19,-8,12,1
CCOC(=O)C1(Cc2cccc(Cl)c2)CCCN(C(=O)c2cnn(CC)c2)C1 (configuration not stated),?,0.4,-2,8,-4,-4,-8
CCN(Cc1ccncc1)C(=O)CCc1nnc(CCC2CCCCC2)o1,2676,8.7,-5,-33,11,-7,2
O=C(NCc1ccco1)C(Cc1ccccc1)N1C(=O)C2C3C=CC(C3)C2C1=O (configuration not stated),4917,1.8,-3,-17,.,.,.
CCOc1ccc(S(=O)(=O)NCc2ccco2)c2ccccc12,9098,6.0,-8,-13,4,5,-5
O=C(c1ccc2oc(CCCc3ccccc3)nc2c1)N1CCCC1,5952,1.7,-1,-105,-6,2,15
CCc1ccc(NC(=O)[C@H](Cc2ccccc2)NC(=O)C2CCN(C(=O)[C@@H](N)CC(C)C)CC2)cc1,3960,3.7,12,-6,0,.,.
CC(Sc1ccccc1)C(=O)NN=C1CCCCCCC1 (configuration not stated),3736,4.7,4,-24,3,7,3
CNC(=O)c1[nH]cnc1C(=O)N[C@@H](C)C(=O)OCc1ccccc1,3731,.,.,0,-10,.,.
COc1ccc(NC(=O)c2ccc(COc3ccccc3Br)o2)c(OC)c1,4521,10,1,.,-1,-1,0
CSc1ccc(C(=O)C2CCCN(C(=O)c3cccc(N4CCOCC4)c3)C2)cc1 (configuration not stated),4260,1.5,-2,18,.,15,8
COc1ccc(Cc2nc3ccc(C(=O)NC(C)Cc4ncccc4C)cc3o2)cc1OC (configuration not stated),6521,-1.3,5,-30,4,-1,11
CCc1cc(=O)oc2cc(OC(=O)CN3C(=O)NC4(CCCC4)C3=O)ccc12,4135,.,.,3,1,.,.

Profiles as entered above. Values in the order: Bead autofluor	Sa RN4220 lethal	ugtP null kill	PrP UTR inh	BJeLR lethal	Mtb hypoxia rep	Mtb hypoxia rep growth
`CCc1cc(=O)oc2cc(OC(=O)CN3C(=O)NC4(CCCC4)C3=O)ccc12` across the screens: 4135	.	.	3	1	.	.
`COc1ccc(Cc2nc3ccc(C(=O)NC(C)Cc4ncccc4C)cc3o2)cc1OC` (configuration not stated) across the screens: 6521	-1.3	5	-30	4	-1	11
`CCc1ccc(NC(=O)[C@H](Cc2ccccc2)NC(=O)C2CCN(C(=O)[C@@H](N)CC(C)C)CC2)cc1` across the screens: 3960	3.7	12	-6	0	.	.

(next part)
structure,Bead autofluor,Sa RN4220 lethal,ugtP null kill,PrP UTR inh,BJeLR lethal,Mtb hypoxia rep,Mtb hypoxia rep growth
Cc1ccc(C)n1-c1c(C(=O)NN)cnn1-c1ccccc1,3091,5.3,6,-5,-8,1,-1
O=C(COc1ccccc1F)Nc1nnc(C2CCCC2)s1,4857,-3.6,0,-22,0,8,11
NS(=O)(=O)c1ccc(CCNC(=O)CNC(=O)Cc2cccc3ccccc23)cc1,3826,3.4,7,-29,4,5,5
CN1C[C@@H]2C(c3ccc(C(F)(F)F)cc3)C3(c4cccnc4)CC2(C3)[C@H]1c1ccccc1 (some centres not stated),4020,.,.,-10,-3,.,.
CCCCOc1ccc(C(=O)N/C(=C/C=C/c2ccccc2)C(=O)O)cc1,4622,8.0,9,-11,2,9,-2
Clc1cc(Cl)c(OCc2nc(-c3ccccn3)no2)cc1Cl,6292,20,-6,-56,-16,13,12
CCC(=NNC(=O)c1c[nH]c2ccccc12)c1cccs1,.,5.2,-10,.,.,11,5
Oc1ccc2c3c1OC1c4[nH]c5ccccc5c4C[C@@]4(O)C(C2)N(CC2CC2)CC[C@]314 (some centres not stated),5759,6.6&0.9,1&-3,-4,.,9,4
COc1ccccc1NC(=O)c1ccc(NC(=O)CN2C(=O)CN(C)C2=O)cc1,4026,0.4,5,-30,2,6,6
CCC(=O)N1CCN(c2ccccc2NC(=O)COc2cc(C)ccc2C(C)C)CC1,4367,3.1,-12,-17,-11,12,8
Cc1ccc2cc(CN(CCCN(C)C)C(=S)NCc3ccccc3)c(=O)[nH]c2c1C,3106,-3.8,-8,7,11,9,9
Cc1ccc2ccccc2[n+]1CCCS(=O)(=O)[O-],3444,12,11,-11,7,.,.

structure,Bead autofluor,Sa RN4220 lethal,ugtP null kill,PrP UTR inh,BJeLR lethal,Mtb hypoxia rep,Mtb hypoxia rep growth
Cn1c(CNC(=O)c2ccc(F)cc2)cc2ccccc21,3137,0.6,2,-16,6,4,-1
O=C(Nc1ccc2nc3n(c(=O)c2c1)CCCCC3)c1c(F)ccc([N+](=O)[O-])c1F,5818,.,.,-11,75*,.,.
CCOC(=O)C(CC)/C(C)=N\NC(=O)c1cccc(C)c1 (configuration not stated),3319,.,.,-26,4,.,.
CC(C)CCOc1ccc(C(=O)NCCC(=O)N2CCOCC2)cc1,21240*,4.6,-2,-20,-1,11,12
O=C(OCc1ccc(Cl)cc1Cl)c1cccnc1Cl,4002,7.4,-2,-12,1,6,7
CC(=O)c1cccc(NC(=O)COC(=O)CCC(=O)c2ccc(F)cc2)c1,3864,2.9,1,-1,.,-1,-1
CCOC(=O)c1[nH]c2ccc(OC)cc2c1NC(=S)N1CCN(c2ccccn2)CC1,4706,1.0,5,-13,-1,4,7
CC(C)CNC(=O)NC1C(NC(=O)NCC(C)C)N(C)C(=O)N1C (configuration not stated),4896,-1.3,-2,-40,-10,.,.
O=C(N/C(=C/c1ccc(Br)cc1)C(=O)N1CCCC1=O)c1ccco1,2552,3.3,8,-13,1,5,10
COc1ccc(COc2cc(-c3cccc(OC)c3)nc3ccc(NC(C)=O)cc23)cc1,4115,3.5,3,-2,0,7,3
CCC(=O)N1CCN(c2cc3c(cc2F)c(=O)c(C(=O)O)cn3CC)CC1,4164,44,47,-11,-11,4,19
Cc1ccc(C(=O)N/N=C\c2cccc(OC(=O)c3cccc(F)c3)c2)cn1,3879,.,.,-23,-9,.,.

structure,Bead autofluor,Sa RN4220 lethal,ugtP null kill,PrP UTR inh,BJeLR lethal,Mtb hypoxia rep,Mtb hypoxia rep growth
CC(C)n1nnnc1SCC(=O)c1c(N)n(C2CC2)c(=O)[nH]c1=O,.,2.1,10,-10,.,0,-4
CNC(=O)CC1C(=O)N(Cc2ccccc2)C(=S)N1NC(=O)c1cccc(F)c1 (configuration not stated),10539,3.4,-3,-9,-2,-1,-2
CN1CCN(C(=O)CN(c2cccc(Cl)c2)S(=O)(=O)c2ccccc2)CC1,3245,8.7,-2,-10,-1,5,1
O=C(O)CC/C(=C\c1ccc2c(c1)OCO2)c1nc2ccccc2s1,4178,4.4,-14,-2,-4,0,11
COCCSc1nc(N)c(NC(=O)c2ccc(OC)cc2)c(=O)[nH]1,2526,4.4,-3,-16,-3,3,10
CCC(=O)Nc1ccccc1C(=O)NC1CCCCC1,21479*,-0.8,-9,-19,-6,3,13
O=C1CCN(C2CCN(Cc3nc(Cc4ccccc4F)no3)CC2)CCN1,2506,4.8,-2,-19,15,-6,7
COc1ccccc1OCc1nc(C#N)c(N2CCCC2)o1,3322,7.9,9,-10,-1,10,7
O=C(NNC(=O)C1CCCCC1)C(=O)NC1CCCCC1,5862,-0.8,-2,-12,-10,-4,10
CN(C(=O)CSc1nnc2n1CCCCC2)C1(C#N)CCCCC1,3925,1.3,-1,-10,.,-10,13
CC1C(C(=O)Nc2ccccc2)CCCC1(C)C(=O)O (configuration not stated),?,5.0,10,-22,-2,-6,-2
COc1ccc(-c2ccc(-c3noc(C)n3)c(OC)n2)cc1,12232,4.7,-1,.,-3,-2,12

structure,Bead autofluor,Sa RN4220 lethal,ugtP null kill,PrP UTR inh,BJeLR lethal,Mtb hypoxia rep,Mtb hypoxia rep growth
CN(C)N=Nc1nc[nH]c1C(N)=O,5097,3.2,5,-50,.,14,5
CCOC(=O)C1=C(O)/C(=C\c2cc(C)n(-c3ccc(F)cc3)c2C)N=C1C,5435,.,.,-28,2,.,.
Oc1ccccc1CNc1cccc2cccnc12,4028,-2.8,3,-31,-19,3,5
CCOc1ccc(N2CC(C(=O)N3CCCCC3)CC2=O)cc1 (configuration not stated),5787,0.8,8,-16,-3,13,19
CCOC(=O)C(NC(=O)Nc1cccc(C)n1)(OCC(F)(F)F)C(F)(F)F (configuration not stated),7025,7.3,0,-9,-1,11,4
O=C(Cc1ccccc1[N+](=O)[O-])NCc1ccc(Cl)cc1Cl,2640,4.7,-3,-95,1,12,6
Cc1cc(NC(=O)CSc2ncccc2C(=O)O)no1,4544,12,4,-6,-3,1,11
CCOC(=O)CC(C)(C)C(C)=NNc1ccc([N+](=O)[O-])cc1[N+](=O)[O-],.,6.7,2,.,.,7,5
Fc1cc(F)nc(NCc2ccccc2)n1,3479,4.6,5,-33,-8,1,6
CSc1nc(-c2ccc(Cl)cc2)nn1S(=O)(=O)c1ccc(Cl)cc1,5095,-1.8,-4,-41,-6,.,.
COc1ccc2c(c1OC)C(=O)N1C2SC(C)(C)[C@H]1C(=O)NC1CC1 (some centres not stated),4193,4.7,-4,-30,4,.,.
CC1CCCN(S(=O)(=O)c2ccc3c(c2)c(=O)nc2ccccn23)C1 (configuration not stated),3159,2.4,3,-15,3,8,3
O=C(CCNC(=O)c1ccccc1)Nc1ccc(S(=O)(=O)Nc2ncccn2)cc1,3868,0.4,1,-8,.,11,18
O=C(O)CC12CC3CC(C1)CC(n1cncn1)(C3)C2,4110,3.0,1,-14,-1,-3,2
O=C(O)CCC(=O)Nc1nc(-c2ccccc2)cs1,3265,-17,-3,-8,7,16,-15

As entered above.
Cc1ccc2cc(CN(CCCN(C)C)C(=S)NCc3ccccc3)c(=O)[nH]c2c1C | BJeLR lethal = 11
CCOC(=O)CC(C)(C)C(C)=NNc1ccc([N+](=O)[O-])cc1[N+](=O)[O-] | Mtb hypoxia rep growth = 5
